miR-21 FLuc: miR-21 reporter, rising signal; HeLa miR-21 FLuc reporter, luciferase, 48 h; Potency, µM (top dose mostly 38.3 µM), inactives show top-dose reporter change, positive = more light; 340,000 tested, under 10 active; AID 2288; active = well fitted rising curve with a large enough effect; inconclusive = small, poorly fitted or top-dose-only effect; inactive = no such curve, though single readings can be large or run the other way;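 also: % of control where 0% means no effect; miR-21 action dims this reporter so a rising signal means less miR-21 action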
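HeLa cells endogenously expressing miR-21, stably carrying CMV-driven firefly luciferase with a downstream miR-21 binding site, 2000 cells/well. Titrations up to approximately 40 uM, 48 hours; luciferase luminescence read.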
Rango complex inh: prevents formation of the Rango-importin beta complex; Q14974; Rango CFP/YFP FRET sensor + importin beta, 45 min; Potency, µM (titrated, usually from 92.2 µM), inactives show at the top dose inhibition of complex formation; hit rate 0.031% among 340,000; AID 540263; active = rising FRET ratio curve, often small or poorly fitted; inconclusive = mostly compound fluorescence or quenching in the first reads; inactive = flat curves in all reads;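 also: potency is read from the fitted curve at half-maximal effect; 0% = DMSO wells and 100% = buffer wells lacking importin beta; nearly all actives have a fitted effect of over 15% in size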
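Inhibition scored from the CFP 486 nm/YFP 530 nm FRET ratio 45 min after adding 0.125 microM importin beta to 50 nM Rango biosensor preincubated 5 min with compound (room temperature, PBS with DTT, Tween-20, BSA). No-importin wells as positive control.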
GLA inh pH 4.5: inhibitors of human alpha-galactosidase A at pH 4.5; P06280; purified enzyme, 4-MU-alpha-Gal fluorescence, pH 4.5; activity change, negative = inhibition, % at 105 µM; 230,000 tested, under 10 active; AID 1467; inconclusive = small, poorly fitted or top-dose-only inhibition, or a rising curve; inactive = flat fitted curve, though single readings scatter; no compound was filed as active;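 also: 0% = full activity with enzyme and -100% = basal without enzyme; dose as in the result columns while the protocol names 77 µM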
Target sequence (P06280 whole entry, looked up): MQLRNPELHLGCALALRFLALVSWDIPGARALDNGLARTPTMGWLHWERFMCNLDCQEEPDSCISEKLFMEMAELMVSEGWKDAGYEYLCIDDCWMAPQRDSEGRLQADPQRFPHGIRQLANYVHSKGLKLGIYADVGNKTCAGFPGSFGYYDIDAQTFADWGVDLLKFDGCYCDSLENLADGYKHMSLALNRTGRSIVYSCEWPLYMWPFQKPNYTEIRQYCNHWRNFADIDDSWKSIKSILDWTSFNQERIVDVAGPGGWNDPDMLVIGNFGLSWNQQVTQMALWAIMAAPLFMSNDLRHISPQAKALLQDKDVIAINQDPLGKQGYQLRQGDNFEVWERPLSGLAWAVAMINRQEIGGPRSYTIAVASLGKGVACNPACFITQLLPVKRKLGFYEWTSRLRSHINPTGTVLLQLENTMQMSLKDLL
Rango dissoc inh: inhibition of RanGTP-driven Rango-importin beta dissociation | hit rate 0.071% among 340,000 | O95149+P62826 | Potency, µM (doses to about 46.1 µM), without a hit: top-dose activity change, negative = inhibition | Biochemical FRET Rango-importin beta, RanGTP-induced dissociation; active means falling FRET ratio curve, often poorly fitted, with flat reads before Ran was added; inconclusive means other falling curves, or compound fluorescence or quenching; inactive means flat or rising ratio curve;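 also: potency is read from the fitted curve at half-maximal effect; % of control where 0% means no effect; nearly all actives have a fitted effect of over 45% in size; -100% = wells without RanGTP and RCC1; the record marks most hits as doubtful in a second field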
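Compounds sat 5 min at room temperature with 0.1 uM Rango biosensor plus 0.25 uM importin beta, then FRET pre-read. RanGTP-RCC1 (0.6 uM Ran, 2mM GTP, 0.2 uM RCC1) added for 45 min, and the CFP/YFP post-read measured blocked complex dissociation.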
* marks the source's active call; other numbers are inactive results; ? = inconclusive; · = not tested or not shown; [ ] = dose if it differs, or a comment. An excerpt; the hit share may differ from the screen's.

SMILES | miR-21 FLuc | Rango complex inh | GLA inh pH 4.5 | Rango dissoc inh
O=C(NCc1cccc(F)c1)C1CCC(=O)N(CC2CCCCC2)C1 (stereo not drawn) | 1% | -0.6% | · | 1%
Cc1c(NC(=O)c2ccc(-c3ccc([N+](=O)[O-])cc3Cl)o2)c(=O)n(-c2ccccc2)n1C | -6% | 1.0% | 2 | 20%
COc1ccc(CNC(=O)COC(=O)CCc2nc3ccccc3c(=O)[nH]2)cc1 | 0% | 0.7% | 4 | 1%
Nc1cc(C(=O)N2CCCC2)cc(C(=O)N2CCCC2)c1 | -9% | 1.7% | 4 | -2%
COc1ccc(NC(=O)C2CCC(=O)N2S(=O)(=O)c2ccc(C)cc2)c(OC)c1 (stereo not drawn) | -3% | -3.5% | 8 | -5%
COc1ccc(/C=C2\CCCC3C2=NN(C(=O)CSc2ncn[nH]2)C3c2ccc(OC)cc2)cc1 (stereo not drawn) | 3% | -1.4% | -8 | 1%
O=C(C1CCC1)N1CCN(Cc2ccccc2)CC1 | -3% | 1.5% | 6 | 0%
COc1ccccc1Oc1ccc(Oc2ccccc2OC)cc1 | -1% | 0.5% | 3 | 8%
Nc1nonc1-n1nnc(C(=O)N/N=C/c2cccs2)c1-c1ccc2c(c1)OCO2 | 2% | 0.1% | · | 16%
Cc1cc(C)c(Cn2c(=O)n(CCCC(=O)NCc3ccco3)c(=O)c3ccccc32)c(C)c1 | · | 1.0% | · | 0%
NC(=O)COC(=O)c1ccccc1Oc1ccccc1 | -9% | -0.2% | -2 | -8%
Cc1cccc(OCCC(=O)OC(C)C(=O)Nc2ccc(Cl)cn2)c1 (stereo not drawn) | · | 5.4% | · | 1%
Cc1ccc(NC(=O)CCN2C(=O)C3C4CCC(C4)C3C2=O)cc1Cl (stereo not drawn) | 0% | -0.7% | · | 1%
CN(C(=O)c1coc(=O)c2ccccc12)c1ccc(F)cc1 | 17% | 0.0% | 2 | 34%
COc1ccc(C(=O)Nc2ccc3c(c2)OCCO3)cc1Br | -37% | 0.1% | · | -6%
O=C(O)CC(c1ccccc1)n1cccc1 (stereo not drawn) | 1% | 3.8% | 8 | 24%
CS(=O)(=O)N1CCC(CO)(Cc2ccccc2C(F)(F)F)CC1 | -1% | 2.6% | 7 | -1%
Cc1ccc(-n2nc3c(c2NC(=O)c2ccco2)CS(=O)(=O)C3)cc1C | -1% | -2.8% | · | 7%
COc1ccc(C)cc1Nc1c2c(nc3ccccc13)CCC2 | ? | 9.5% | · | 48%
CCOC(=O)c1ccc(NC(=O)CC2C(=O)N(c3ccccc3)C(=O)N2CCCOC)cc1 (stereo not drawn) | -2% | -0.8% | 4 | 2%
Cc1ccc(OCC(O)CN2CCN(c3ccc(C)cc3)CC2)cc1 (stereo not drawn) | -5% | 0.8% | · | 1%
CNC(=O)C1CC(=O)N/C(=N/N=C(\C)c2cccs2)S1 (stereo not drawn) | 0% | 5.4% | -6 | -10%
O=C(C1=C[C@H](c2csc3ccccc23)C[C@H](OCc2ccc(CO)cc2)O1)N1CCCCCCC1 | · | -0.3% | · | 6%
COC(=O)c1cn(NC(=O)c2ccc3c(c2)OCO3)c(=O)c2ccccc12 | -14% | ? | 1 | 0%
CCOC(=O)C1CCN(C(=O)CCS(=O)(=O)Cc2ccccc2)CC1 | 0% | -5.5% | · | 0%
CC1CCc2onc(C(=O)NCc3ccco3)c2C1 (stereo not drawn) | 7% | -1.5% | 6[21.1 µM] | -6%
O=C(NNC(=S)NCc1ccco1)C(c1ccccc1)c1ccccc1 | -1% | 3.7% | 5 | 12%
Cc1cccc2cn[nH]c12 | 2% | -1.5% | -2 | -6%
CNC(=O)Nc1ccc2snnc2c1 | -1% | -1.0% | -4 | -5%
COc1cccc(NC(=S)Nc2cccnc2)c1 | -34% | 0.1% | 5 | 1%
COc1cccc(OC)c1C(=O)Nc1ccc(C(=O)NCc2ccccc2)cc1 | -5% | 1.9% | · | -12%
CCOc1ccc(C2C(C(=O)c3ccc(C)o3)=C(O)C(=O)N2c2cc(C)on2)cc1OC (stereo not drawn) | -1% | -4.6% | · | -25%
CCc1ccc(NC2=NC(C(=O)c3ccccc3)CC(=O)N2)cc1 (stereo not drawn) | -9% | -0.2% | -26 | -21%
O=C(CSc1nc2ccccc2o1)NCc1n[nH]c(=O)c2ccccc12 | -4% | 1.3% | 2 | -3%
COc1cc(N/N=C(\C)c2ccc(O)c(C)c2)nc(-c2ccccc2)n1 | 8% | -4.8% | -2 | 10%
CCn1c2ccccc2c2nnc(SCCN3CCOCC3)nc21 | -12% | 1.5% | · | -24%
Clc1ccc(C[n+]2cc(-c3ccc(Cl)cc3)n3c2CCC3)cc1 | 27% | 0.0% | -3 | -5%
Cc1ccc(NC(=S)N2CCN(c3ccccn3)CC2)cc1C | -6% | 0.1% | · | 1%
Cc1cccc(N2CCN(C(=O)C(Cc3ccccc3)n3cccc3)CC2)c1C (stereo not drawn) | 3% | 0.7% | 2 | 0%
COc1ccccc1N1CCN(CC(O)COc2ccc3c(C)cc(=O)oc3c2)CC1 (stereo not drawn) | -8% | 4.6% | -3 | -4%
OCCNc1nc2ccc(Cl)cc2[nH]1 | -14% | 0.2% | 1 | 4%
COc1cc(OC)cc(C(=O)NCC(=O)OCC(=O)/C=C2/N(C)c3ccccc3C2(C)C)c1 | 2% | 0.0% | -8 | -13%
CN1C2C=C3C(C#N)=C(N)C(C#N)(C#N)[C@@H](c4ccsc4)[C@@H]3C1CC2 (stereo partly drawn) | -1% | ? | 4 | ?
Cc1ccc2c(C)[nH]c(=O)cc2c1 | 14% | -1.8% | 5 | 12%
Cc1ccc(C(C)C)cc2c(C)ccc1-2 | · | 2.4% | -6 | -1%

Part of the list above in another layout.
| canonical_smiles | miR-21 FLuc | Rango complex inh | GLA inh pH 4.5 | Rango dissoc inh |
| --- | --- | --- | --- | --- |
| CCc1ccc(NC2=NC(C(=O)c3ccccc3)CC(=O)N2)cc1 (stereo not drawn) | -9% | -0.2% | -26 | -21% |
| O=C(CSc1nc2ccccc2o1)NCc1n[nH]c(=O)c2ccccc12 | -4% | 1.3% | 2 | -3% |
| COc1cc(N/N=C(\C)c2ccc(O)c(C)c2)nc(-c2ccccc2)n1 | 8% | -4.8% | -2 | 10% |

Full records, looked up by structure. Order of screens: miR-21 FLuc, Rango complex inh, GLA inh pH 4.5, Rango dissoc inh
CS(=O)(=O)N1CCC(CO)(Cc2ccccc2C(F)(F)F)CC1 in the list: -1%, 2.6%, 7, -1%
COc1ccccc1Oc1ccc(Oc2ccccc2OC)cc1 in the list: -1%, 0.5%, 3, 8%

Next entries follow:
SMILES | miR-21 FLuc | Rango complex inh | GLA inh pH 4.5 | Rango dissoc inh
Cc1onc(-c2ccccc2)c1C(=O)N1CCN(S(=O)(=O)c2ccc(OC(F)(F)F)cc2)CC1 | 1% | -0.1% | · | -10%
O=C(Cc1c[nH]c2ccccc12)N1CCc2ccccc21 | -44% | 0.3% | -10 | -1%
Cc1cccc(OCCC(=O)Nc2ccc(S(=O)(=O)N3CCCC3)cc2)c1 | 7% | -2.2% | -7 | 2%
COc1ccc(OC)c(S(=O)(=O)Nc2cccc3ccccc23)c1 | · | 0.6% | · | -21%
CCN1C(=O)[C@H]2[C@@H](c3ccc(-c4ccc5c(c4)OCO5)c(OC)c3)N[C@@](CC(C)C)(C(=O)OC)[C@H]2C1=O | · | -3.1% | · | -1%
O=C(CCc1ccccc1)NNC(=O)Nc1ccccc1 | 1% | 2.8% | 9 | -5%
C(=C\c1cc(/C=C/c2ccccc2)ncn1)/c1ccccc1 | -39% | -2.5% | -15 | -2%
CC(C)OC1(c2ccccc2)OC(=O)c2ccccc21 (stereo not drawn) | 0% | -0.6% | 1 | -1%
Cc1ccc(C)n1NC(=O)c1ccco1 | -3% | 0.8% | -17 | -6%
O=C(CC(=O)N/N=C/c1ccc(Cl)cc1Cl)NCc1ccccc1 | 0% | -2.4% | 4 | ?
COc1ccc2cc(C)c(SCC(=O)Nc3cc(C)on3)nc2c1 | 0% | 4.8% | -4 | 3%
CCOc1ccc(C(=O)N2CCSC2=S)cc1 | -12% | -1.1% | -6 | 1%
CCOc1ccc(CNc2ccc3c(c2)ncn3C)cc1 | -48% | 1.7% | 0 | -25%
Cn1cc([N+](=O)[O-])c(C(=O)Nc2ccc3c(c2)OCCO3)n1 | -30% | -1.5% | -3 | 17%
O=C(Cc1ccccc1F)Nc1ccc(S(=O)(=O)N2CCCC2)cc1 | · | 4.6% | · | 1%
C=CCNC(=O)c1sc(SC)cc1-c1ccc(Cl)cc1 | -8% | -2.5% | 0 | 0%
CCOC(=O)/C(C#N)=C/c1ccc(OC(=O)c2ccccn2)cc1 | -7% | ? | 0 | ?
C=C(C)C(=O)OC1(C(F)(F)F)Oc2cc(C)ccc2NC1=O (stereo not drawn) | ? | -1.6% | 5 | -9%
O=[N+]([O-])c1ccc(O)c(C=Nc2ccc3c(c2)OCCO3)c1 | -35% | -1.5% | -9 | -11%
Cc1ccc(OCC(=O)Nc2cccc(S(=O)(=O)N3CCCCCC3)c2)c([N+](=O)[O-])n1 | 6% | 5.2% | -8 | 5%
CCCCCCCCCC(=O)N[C@H](CN1CCOCC1)[C@H](O)c1ccccc1 | · | ? | -2 | -6%
CN(CC(=O)NCc1ccc(F)cc1)Cc1cccc(Cl)c1 | -6% | -1.5% | · | 0%
COCC(=O)Nc1cc([N+](=O)[O-])ccc1C | 0% | -0.4% | 8 | 12%
COc1ccc(S(=O)(=O)N2CCN(C(=O)NCc3ccccc3)CC2)cc1 | -5% | 0.9% | -3 | 25%
COc1ccc(NC(=O)COC(=O)CCOc2ccccc2C)cc1Cl | · | 5.4% | · | 19%
COc1c(N2CCN[C@H](C)C2)c(F)cc2c(=O)c(C(=O)O)cn(C3CC3)c12 | 1% | 0.4% | · | 5%
Cc1nc(-c2ccccc2)sc1C(=O)Nc1ccc(S(N)(=O)=O)cc1 | 12% | 1.3% | · | -4%
COc1ccc(NC(=O)OC(C)C)cc1 | -35% | 3.7% | -15 | 18%
CCN(CC)CC(O)Cn1c(-c2ccccc2Cl)nc2ccccc21 (stereo not drawn) | -3% | -0.6% | -1 | 2%
Cc1ccc(S(=O)(=O)N2CCCCC2C(=O)Nc2nncs2)cc1 (stereo not drawn) | 0% | -0.3% | 1 | ?
Cc1cc(N/C=C/C(=O)c2cccc3ccccc23)no1 | -28% | 0.2% | 0 | -3%
Cc1ccc(S(=O)(=O)N[C@H](C(=O)N2CCC(C(=O)N[C@@H](CCC(N)=O)C(=O)O)CC2)C(C)C)cc1 | 1% | 1.7% | · | 10%
CCc1nc2ccccc2c(C(=O)OCC(=O)Nc2cccc(S(=O)(=O)NC3=NCCCCC3)c2)c1C | ? | 0.8% | -7 | 8%
CCc1ccc(N/C(N)=N/c2nc(CSc3ccccn3)cc(=O)[nH]2)cc1 | -1% | -2.5% | -8 | 11%
O=C(NCCCNC(=O)c1cc(Cl)ccc1Cl)c1cnccn1 | 0% | 0.8% | · | 4%
Cc1cc2nccc(-c3ccc(Cl)c([N+](=O)[O-])c3)n2n1 | 2% | -0.3% | -8 | -9%
COc1cccc(CN2C(=O)[C@H]3Cc4c([nH]c5ccccc45)C(C)(C)N3C2=O)c1 | · | ? | · | -19%
CCNC(=S)NCCN1CCCCC1 | -4% | 0.3% | 6 | 22%
CCOc1cc(C(=S)N2CCOCC2)ccc1OS(=O)(=O)c1ccccc1 | -3% | ? | -16 | -30%
O=C(Nc1ccn(-c2ccccc2)n1)c1ccc(S(=O)(=O)N2CCCCCC2)cc1 | ? | -2.9% | -1 | 23%
N#Cc1cccnc1N1CCN(C(=O)c2cccc3c2C(=O)c2ccc(Cl)cc2S3(=O)=O)CC1 | · | ? | · | -25%
Cc1ccc(Cl)cc1N1CCN(C(=O)C2CCN(S(=O)(=O)c3c(C)nn(C)c3C)CC2)CC1 | 29% | -1.3% | -9 | -16%
CCC1(c2ccccc2)NC(=O)N(CC(=O)NNC(=O)c2ccoc2C)C1=O (stereo not drawn) | · | 3.4% | · | 16%

Screening data: PubChem BioAssay, National Center for Advancing Translational Sciences (NCATS)
